# Resorufin autofl: compounds fluorescent in resorufin spectral region. AID 588. max dye-equivalent concentration, M. Compound fluorescence, resorufin region 547/598 nm, buffer; active compounds read high. actives 0.04% (n = 59,000); active = above 10 nM dye equivalent; inconclusive = 1 to 10 nM; inactive = 1 nM or less; a few of its hits are not listed in these tables; also: highest value over a series up to 38 µM
#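 Compounds in 100 mM Tris buffer, pH 8.0, incubated 15 min at room temperature, then read with 547 nm excitation and 598 nm emission filters. Fluorescence was converted to dye-equivalent concentration using an on-plate six-point resorufin standard curve.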
# TSHR ag: activates the human thyroid stimulating hormone receptor; P16473; Potency, µM (series often up to 57.1 µM), for inactives: at the top dose activation, usual class: activators; actives 0.48% (n = 73,000); AID 926; HEK293-CNG-TSHR cells (CNG channel as cAMP sensor), membrane potential dye, cAMP; active = well fitted activation curve of enough size with the parental cells flat; inconclusive = any curve in the parental cells; inactive = parental cells flat and receptor cells flat or falling; also: potency is read from the fitted curve at half-maximal effect; % of control where 0% means no effect; weak receptor curves with flat parental cells got no call and are not listed
# Target sequence (P16473 whole entry, looked up): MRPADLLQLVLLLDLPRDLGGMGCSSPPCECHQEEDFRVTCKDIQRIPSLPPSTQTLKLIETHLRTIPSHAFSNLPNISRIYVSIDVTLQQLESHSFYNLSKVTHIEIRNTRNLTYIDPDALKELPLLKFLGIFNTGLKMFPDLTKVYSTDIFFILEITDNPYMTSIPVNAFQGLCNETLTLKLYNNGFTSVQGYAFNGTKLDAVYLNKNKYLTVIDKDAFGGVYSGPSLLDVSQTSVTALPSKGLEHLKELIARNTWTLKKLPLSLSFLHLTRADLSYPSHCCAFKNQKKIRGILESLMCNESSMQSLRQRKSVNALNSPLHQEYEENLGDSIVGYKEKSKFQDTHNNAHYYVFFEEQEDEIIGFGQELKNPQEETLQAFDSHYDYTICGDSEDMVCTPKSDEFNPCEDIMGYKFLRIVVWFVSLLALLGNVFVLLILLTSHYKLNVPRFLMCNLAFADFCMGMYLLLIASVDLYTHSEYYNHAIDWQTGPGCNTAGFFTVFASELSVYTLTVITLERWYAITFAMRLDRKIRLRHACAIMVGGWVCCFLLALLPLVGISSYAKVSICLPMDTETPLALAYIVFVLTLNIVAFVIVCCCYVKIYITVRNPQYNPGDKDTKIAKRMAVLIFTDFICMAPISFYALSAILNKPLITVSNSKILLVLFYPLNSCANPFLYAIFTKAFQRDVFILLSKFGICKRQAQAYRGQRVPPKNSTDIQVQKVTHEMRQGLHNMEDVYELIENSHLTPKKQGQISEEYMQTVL
#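 cAMP rise detected as CNG-channel membrane depolarization by fluorescent dye (emission 590 nm), 30 min after compound, following 60 min dye loading containing 100 uM RO 20-1724 at room temperature. Cells: TSHR/CNG HEK 293, with parental CNG HEK 293 as control.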
# A647 fluor: compound autofluorescence in A647 spectral region | Compound fluorescence, A647 channel (570/671 nm), Tris buffer | max dye-equivalent concentration, M | 59,000 tested, under 10 active; active means above 1 µM dye equivalent; inconclusive means 0.1 to 1 µM; inactive means 0.1 µM or less;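 also: values scaled relative to a standard on each plate; highest value over a series up to 38 µM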
#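 Tris 100 mM pH 8.0; cpd + A647 stds pin-transferred; 15 min RT; CCD imager, ex 570/em 671. Output = A647-equivalent conc. per cpd conc.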
# A488 autofl: compound autofluorescence in A488 spectral region. compound autofluorescence, A488 spectral region, dye equivalency; active compounds read high. max dye equivalency, M. actives 0.1% (n = 59,000). AID 591; active = above 10 nM dye equivalent; inconclusive = 1 to 10 nM; inactive = 1 nM or less; about half of its hits are not listed in these tables;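 also: highest value over a series up to 38 µM; compound alone in buffer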
#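 Compound autofluorescence was read in 100 mM Tris pH 8.0 after 15 min at room temperature, ex 480 nm/em 540 nm. Intensities were converted to A488 dye-equivalent concentration using an on-plate six-point A488 standard curve.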
# AID923: qHTS Assay for Allosteric/Competitive Inhibitors of Caspase-1: Spectroscopic Profiling in AFC Spectral Region. Potency, µM (highest dose often 57.5 µM), for inactives: top-dose fluorescence increase, actives largely listed as activators. AID 923, 2007. actives 1.1% (n = 75,000). compound fluorescence, AFC spectral region (405/520 nm); almost no hit is shown here; active = well fitted activation curve with a large enough effect; inconclusive = small, poorly fitted or top-dose-only effect;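 also: potency is read from the fitted curve at half-maximal effect; 0% is about no effect; scaled to a free AFC standard on each plate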
#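 Baseline compound fluorescence (AFC region, 405 nm ex/520 nm em) taken from the intercept of kinetic reads with 50 nM caspase-1 and 5 uM Ac-WEHD-AFC; normalized to an on-plate AFC standard curve; compounds titrated up to 57 uM.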
# Starred values were filed as active, the others as inactive; i = inactive; ? = inconclusive; · = no result given; & = joins results of further samples; [ ] = dose if it differs, or a comment. An excerpt, so the mix of outcomes need not match the whole.
# Values run as follows: A647 fluor	Resorufin autofl	A488 autofl	TSHR ag	AID923
COc1ccc(-c2nn3c(-c4ccccc4)nnc3s2)cc1
    1e-09	i	i	?	1.2%
c1ccc(-n2ncc3c(NCc4cccnc4)ncnc32)cc1
    ·	·	·	3%	0.7%
CC(=O)N1CCCc2cc(S(=O)(=O)N3CCN(C4CCCCC4)CC3)ccc21
    1e-09	i	i	4%	-0.9%
Cc1nn(Cc2ccccc2Cl)c(C)c1C(=O)NC1=NCCS1
    6.1e-09	i	i	9%	-1.4%
Cc1ccc(S(=O)(=O)NC(=O)NN2C[C@H]3CCC[C@@H]3C2)cc1
    3.5e-08	i	i	1%[25.6 µM]	-2.5%[25.7 µM]
CCc1nnc(NC(=O)CSc2nnc3c4ccccc4n(C)c3n2)s1
    8.5e-09	i	i	8%	-1.0%
COc1ccccc1N1CCN(C(=O)c2cc(-c3cccc(Cl)c3)on2)CC1
    2.9e-09	i	i	19%	1.6%
CCOC(=O)c1sc2ncnc(OC)c2c1C
    4.3e-08	i	i	8%[11.4 µM]	0.5%
Cc1ccccc1C(C(=O)NCc1ccco1)N(CC1CCCO1)C(=O)Cn1nnc2ccccc21 (centres undefined)
    2.2e-08	i	i	?	1.1%
Cc1cccc(Nc2nc(NCc3ccco3)nc(N3CCOCC3)n2)c1
    1e-09	i	i	?	0.2%
Cc1cc(N=Cc2c(CO)cnc(C)c2O)c(N=Cc2c(CO)cnc(C)c2O)cc1C.[Zn]
    1.7e-09	i	i	-5%[11.4 µM]	0.4%[11.5 µM]
COC(=O)c1ccc(CSc2nnc3n(Cc4ccccc4OC)c(=O)c4ccccc4n23)o1
    2.4e-08	i	i	13%	-1.3%
CCOC(=O)c1c(C)c(C(=O)NCc2ccco2)c(C)n1Cc1ccccc1
    1.3e-08	i	i	2%[11.4 µM]	1.3%
OC(CN1CCNCC1)Cn1c2ccc(Br)cc2c2cc(Br)ccc21 (centres undefined)
    ·	·	·	-2%	-6.1%
CC(C)OC(=O)CN1CCN(S(=O)(=O)c2cc(Cl)ccc2Cl)CC1
    3.9e-09	i	i	3%	0.2%
Cc1cc(NC(=O)COc2nnc(-c3ccccc3)c3ccccc23)no1
    2.7e-08	i	i	?	0.8%
CC(C)Nc1nc2n(c(=O)n1)CCN2C(C)C
    1e-09	i	i	-4%	3.5%
CCCn1nnc(NC(=O)c2ccccc2Cl)n1
    1.2e-08	i	i	0%	-1.0%
COc1ccccc1N(CC(=O)Nc1ccccc1C(=O)NCC(C)C)S(C)(=O)=O
    2.2e-08	i	i	16%	-1.3%
COc1ccc(-n2cc(-c3ccccc3)c3c(N4CCN(CCO)CC4)ncnc32)cc1
    1.9e-08	i	i	?	-1.0%
CCOc1nc(-c2ccccc2)ccc1-c1noc(-c2ccco2)n1
    2.8e-08	i	i	1%[11.4 µM]	2.4%
COc1cc(CCC(=O)OCn2nnc3ccccc3c2=O)cc(OC)c1OC
    7.7e-09	i	i	2%	-1.7%
C=CCSc1n[nH]c(-c2ccc(OCCC)cc2)n1
    1e-09	i	i	26%	7.0%
CCOc1ncccc1C(=O)Nc1ccc(-c2cn3ccsc3n2)cc1
    1e-09	i	i	7%	8.0%
C#CC(CC)(CC)NC(=O)c1c(C)noc1C
    ·	·	·	3%	0.2%
O=C(CCCOc1ccccc1)n1nnc2ccccc21
    ·	·	·	10%	-0.1%
CCN1CCN(C(=O)CS(=O)(=O)Cc2nc(-c3ccc(C)cc3)oc2C)CC1
    ·	·	·	11%	2.2%
C[C@@]1(C(NS(=O)(=O)c2cccc3cccnc23)c2ccc(-c3ccccc3)cc2)C[C@H]1C1CCCCC1 (some centres undefined)
    ·	·	·	9%	0.0%
CCCCOC(=O)Nc1ccc(C(=O)OCCC)cc1
    ·	·	·	26%	0.6%
COc1ccc(C(=O)N2CC3(C)CC2CC(C)(C)C3)cc1 (centres undefined)
    1e-09	i	i	95%	-1.5%
Cc1ccc(NC(=O)CSc2nnc(NC(=O)CN3CCOCC3)s2)cc1
    1e-09	i	i	-2%	3.3%
O=C1CC(O)(C(F)(F)F)Oc2c1ccc1ccccc21 (centres undefined)
    ·	·	·	?	4.4%
Cn1c(NCc2ccccc2O)nc2ccccc21
    1.8e-08	i	i	20%	0.7%
Cc1noc(C)c1C(=O)N1CCC2(CC1)CCN(c1ncccn1)CC2
    2.7e-08	i	i	7%	0.1%
COc1ccc(N2C(=O)C(CC(=O)Nc3ccccc3)N(Cc3ccc4c(c3)OCO4)C2=O)cc1 (centres undefined)
    1.2e-08	i	i	?	-2.0%
COc1ccc2oc(-c3ccc(O)cc3)cc(=O)c2c1
    1e-09	i	i	?	2.6%
COc1ccccc1-c1nnc(SCC(=O)NC2CCCCC2)o1
    ·	·	·	7%	0.6%
CO[C@@H]1COC(=O)C/C=C\[C@H](C)[C@@H](NS(=O)(=O)c2ccc(C)cc2)COC(=O)C/C=C\[C@@H]1C
    ·	·	·	-1%&-1%[11.4 µM]	0.5%&-4.5%[11.5 µM]
CCCCCN=Cc1c(C)[nH]n(-c2nc3ccccc3s2)c1=O
    ·	·	·	13%[11.4 µM]	-3.7%
Cc1nc2cc(NC(=O)NCc3ccco3)ccc2n1C
    1e-09	i	i	-6%	-1.0%
Cn1c(=O)c2c(-c3ccccc3)n(Cc3ccccn3)cc2n(C)c1=O
    1.2e-08	i	i	0%	2.2%
O=C(CSc1nc(O)cc(=O)[nH]1)N1CCCc2ccccc21
    1e-09	i	i	?	-0.2%
CCN1CCCC1CNC(=O)CCc1nc(-c2ccc(C)cc2)no1 (centres undefined)
    1e-09	i	i	1%	0.0%
COc1ccc(NC(=O)CSc2nc(O)cc(=O)n2-c2ccccc2OC)cc1
    ·	·	·	28%[11.4 µM]	0.9%
CCc1ccc2[nH]c(=O)c(CN(CCO)C(=O)NCc3ccccc3)cc2c1
    1.3e-09	i	i	?	1.7%

# Limited to Resorufin autofl, A647 fluor and AID923, for six of the compounds above:
Structure	Resorufin autofl	A647 fluor	AID923
Cc1noc(C)c1C(=O)N1CCC2(CC1)CCN(c1ncccn1)CC2	i	2.7e-08	0.1%
COc1ccc(N2C(=O)C(CC(=O)Nc3ccccc3)N(Cc3ccc4c(c3)OCO4)C2=O)cc1 (centres undefined)	i	1.2e-08	-2.0%
COc1ccc2oc(-c3ccc(O)cc3)cc(=O)c2c1	i	1e-09	2.6%
COc1ccccc1-c1nnc(SCC(=O)NC2CCCCC2)o1	·	·	0.6%
CO[C@@H]1COC(=O)C/C=C\[C@H](C)[C@@H](NS(=O)(=O)c2ccc(C)cc2)COC(=O)C/C=C\[C@@H]1C	·	·	0.5%&-4.5%[11.5 µM]
CCCCCN=Cc1c(C)[nH]n(-c2nc3ccccc3s2)c1=O	·	·	-3.7%

# Carrying on:
# Values run as follows: A647 fluor	Resorufin autofl	A488 autofl	TSHR ag	AID923
COc1ccc(OC)c(S(=O)(=O)N2Cc3ccccc3CC2C(=O)Nc2nccs2)c1 (centres undefined)
    1.5e-08	i	i	1%	-1.7%
O=C(COC(=O)CCNS(=O)(=O)c1ccc(Cl)cc1)NCc1ccco1
    6.7e-09	i	i	1%	0.0%
c1ccc(CN2CCN(c3ncccn3)CC2)nc1
    4.2e-09	i	i	0%	-2.0%
COc1ccc2c(C(=O)CN3CCN(CCO)CC3)c[nH]c2c1
    3.6e-08	i	i	-2%	-1.5%
Cc1cc(=O)oc2cc(OC(C)C)ccc12
    ·	·	·	4%	1.9%
CN1Cc2c(C(=O)OC(C)(C)C)ncn2-c2ccsc2C1=O
    ·	·	·	2%	0.5%
c1ccc(Nc2nc(-c3cccnc3)nc3ccccc23)cc1
    1.1e-08	i	i	?	0.1%
C=C(C)c1cccc(C(C)(C)NC(=O)N2CCN(CC)CC2)c1
    1e-09	i	i	10%	0.4%
COc1ccc(NC(=O)CN2CCN(CC(=O)Nc3ccc(OC)c(OC)c3)CC2)cc1
    2.4e-08	i	i	4%	-1.0%
COc1cc(OC)cc(C(=O)N2CCN(C(=O)c3ccc(OC)c(OC)c3)CC2)c1
    2.3e-08	i	i	0%	0.9%
O=C(CN1CCN(CCC(=O)Nc2ccccc2F)CC1)Nc1ccc(F)cc1
    4.7e-09	i	i	1%	-1.2%
O=C(c1nc2nc(-c3ccc(Cl)cc3)cc(C(F)(F)F)n2n1)N1CCOCC1
    3e-09	i	i	-8%	1.1%
O=C(CCc1ccccc1)Nc1ccc(NC(=O)c2ccco2)cc1
    ·	·	·	-18%	2.5%
Cc1ccccc1N1C(=O)CC(N(O)c2ccccc2)C1=O (centres undefined)
    1e-09	i	i	-2%	-0.1%
O=C(CN1C2=NCCN2c2ccccc21)c1ccc2c(c1)OCO2
    6.4e-09	i	i	4%	0.1%
O=C(c1cc2nc(-c3ccc(F)cc3)cc(C(F)(F)F)n2n1)N1CCCC1
    ·	·	·	9%[11.4 µM]	0.4%
Cc1ccc2c(c1)NC(=O)C(N1CCOCC1)(C(F)(F)F)O2 (centres undefined)
    1e-09	i	i	-4%	0.1%
COc1ccc(CCNC(=O)CCSc2nc(-c3ccco3)cc(C(F)(F)F)n2)cc1OC
    4.3e-08	i	i	?	0.9%
CCc1cccc(NC(=O)CN2C(=O)NC3(CCCCCCC3)C2=O)c1
    1.9e-08	i	i	13µM*	-1.1%
O=C(O)C1CC(=O)N(c2ccc(OCc3ccccc3Cl)cc2)C1 (centres undefined)
    1e-09	i	i	-1%	0.1%
CCn1c(COc2ccccc2)nnc1SCC(=O)C(C)(C)C
    7.3e-09	i	i	3%	-1.2%
Fc1ccc(-c2nnc(CSc3nnc(-c4ccc5c(c4)OCO5)o3)o2)cc1
    1.7e-08	i	i	?	2.6%
CCCc1[nH]nc2c1C(c1ccc(OCCN3CCOCC3)c(OCC)c1)C(C#N)=C(N)O2 (centres undefined)
    6.5e-09	i	i	2%	0.8%
CCN(CC(=O)N1CCN(C)CC1)S(=O)(=O)c1ccc(Cl)cc1
    6.5e-08	i	i	-2%	-2.1%
COC(=O)[C@@H](NC(=O)NC(C)CCc1ccccc1)C(C)C (some centres undefined)
    1e-09	i	i	7%	2.4%
CCOc1ccc(N2C(=O)CC(N)C2=O)cc1 (centres undefined)
    2e-09	i	i	·	·
O=c1c2[nH]c3ccccc3c2ncn1CCN1CCOCC1
    1e-09	i	i	3%	-1.7%
CCCN=C(N)/C(C(=O)OCC)=C(\O)c1ccc(OC)cc1
    4.2e-08	i	i	3%	-0.7%
COc1cccc(C(=O)NC2CC3CCCC(C2)N3CC(=O)Nc2ccccc2)c1 (centres undefined)
    1.2e-08	i	i	1%[11.4 µM]	-2.1%
COc1ccc(OC)c(C2=NOC(C(=O)NCc3ccccn3)C2)c1 (centres undefined)
    2.9e-09	i	i	-3%	0.8%
O=C(CSc1nnc2ccccn12)NCc1cccs1
    1.3e-08	i	i	9%	0.9%
CCOc1ccc(N=C(NC#N)SC)cc1
    1e-09	i	i	0%	0.4%
COCCn1c(=O)c(CCc2ccccc2)nc2cncnc21
    1.9e-08	i	i	7%	1.8%
CC12CN3CC(C)(CN(C1)C3c1ccc(Cl)cc1Cl)C2=O (centres undefined)
    ·	·	·	9%	0.7%
O=C1C2C3C=CC(C3)C2C(=O)N1c1cccc(-c2nc3ccccc3o2)c1 (centres undefined)
    ·	·	·	-4%	1.4%
COC(=O)CCC(=O)Nc1cccc2c(NC(=O)CCC(=O)OC)cccc12
    ·	·	·	-2%	1.0%
CCOC(=O)C1=C(C)N=C2SC(C)C(=O)N2C1/C=C/c1ccccc1OC (centres undefined)
    2.4e-08	i	i	?	0.2%
Nc1cc(Cl)ccc1N1CCOCC1
    1.8e-08	i	i	-3%	0.0%

# 2 entries from above in another layout.
SMILES | A647 fluor | Resorufin autofl | A488 autofl | TSHR ag | AID923
COc1ccccc1N(CC(=O)Nc1ccccc1C(=O)NCC(C)C)S(C)(=O)=O | 2.2e-08 | i | i | 16% | -1.3%
COc1ccc(-n2cc(-c3ccccc3)c3c(N4CCN(CCO)CC4)ncnc32)cc1 | 1.9e-08 | i | i | ? | -1.0%
